# RanGTP-Impb inh: inhibitors of RanGTP-importin-beta interaction, primary screen, biochemical, FRET, CFP-Ran, YFP-importin-beta, homogeneous; 1.1% of 300,000 active; AID 2216; inhibition, % (concentration not given with the values); cell-free CFP-Ran/YFP-importin-beta FRET ratio;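 active = most replicates above 15%; inconclusive = exactly half above 15%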;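 also: 0% = DMSO wells and 100% = Ran loaded with GDP instead of GTP; wells of about 40 µL received 100 nL stock; the first replicate is given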
# LANA-H2B inh: blocks KSHV LANA binding to histone H2A/H2B; Q9QR71; inhibition, % (test concentration not listed); cell-free LANA-H2A/H2B peptide, fluorescence polarization; 0.6% of 320,000 active; in the data active = inhibition mostly above about 10%, no sharp cut-off; inactive = mostly below about 6.7%;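 also: stock transfer was 7.5 nL into about 10 µL; 0% = median of vehicle wells and 100% = median of positive control wells; one replicate is shown; the record names a cut of 25% in any replicate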
# Calb FLC: affects C. albicans growth with fluconazole. C. albicans CaCi-2 (fluconazole-resistant clinical isolate) + fluconazole, Alamar Blue growth, 48 h. growth inhibition, % (concentration not given with the values). 0.57% of 300,000 active;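 active = most replicates above 75%; inconclusive = exactly half above 75%; inactive = most below 75%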;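 also: all wells also contain fluconazole at 8 µg/ml as a sub-toxic cotreatment; 0% = median of DMSO wells and 100% = median of geldanamycin control wells; wells of about 8 µL received 7.5 nL stock; the first replicate is given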
# HNF4A DNA FP: change in binding of human HNF4 alpha to DNA; 0.3% of 360,000 active; AID 1224865; P41235; HNF4a-FITC DNA binding, fluorescence polarization, 1 h; activity change, % at 10 µM; in the data active = activity change above about 30%, passing the limit was not always enough;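 also: controls were the assay level and a saturating level of protein; the project sought stronger binding though the title names inhibitors; some compounds called inactive have numbers as strong as hits; positive values seem to mean higher polarization but the record does not say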
# ALR inh: inhibitors of human sulfhydryl oxidase ALR | inhibition, % (test concentration not listed) | 3.8% of 290,000 active | P55789 | AID 485317 | purified ALR, DTT oxidation, H2O2 HRP-luminol luminescence;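 active = mean and each replicate at 75% or more; inconclusive = only one of the two met; inactive = neither met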;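 also: stock transfer was 7.5 nL into about 7.5 µL; 0% = neutral wells and 100% = wells with inactivated enzyme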
# Target sequence (P55789 whole entry, looked up): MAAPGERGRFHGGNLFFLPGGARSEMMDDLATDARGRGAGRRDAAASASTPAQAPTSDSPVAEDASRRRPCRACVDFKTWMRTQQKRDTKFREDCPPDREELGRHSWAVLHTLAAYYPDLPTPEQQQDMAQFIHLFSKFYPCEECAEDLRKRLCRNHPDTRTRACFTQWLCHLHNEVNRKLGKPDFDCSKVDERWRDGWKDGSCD
# Vif TR-FRET: HIV-1 Vif–A3G interaction blockers – biochemical, TR-FRET, GST-Vif 1-94, biotin-A3G peptide, dose response retest, primary screen (AID 1117319); TR-FRET GST-Vif / biotin-A3G peptide binding; higher % means a stronger effect; test concentration not given here; strong numbers were not always called active; inhibition, %; hits with a dose series show IC50 in µM; 0.57% of 260,000 active;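 active = above the screen mean plus three standard deviations and confirmed in dose response; inconclusive = results disagree or hit not tested in dose response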;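 also: Vif residues 1-94 fused to GST binding biotinylated APOBEC3G peptide 110-148; 0% = full assay without inhibitor and 100% = GST in place of GST-Vif; retest series ran down from 100 µM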
# B2AR ag: activates human beta-2 adrenergic receptor causing internalization; P07550; Am2.2-beta2AR cells, FAP receptor internalization, flow cytometry; reference of the scale not given here; response, % (no concentration beside the values); 0.43% of 340,000 active;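 active = response above a set limit, near 3 SD of response in nonfluorescent compounds, cut at about 42% in these data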;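 also: stock transfer was 100 nL into about 11 µL; a reference agonist was the positive control; negative values mostly stem from fluorescent compounds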
# Target sequence (P07550 whole entry, looked up): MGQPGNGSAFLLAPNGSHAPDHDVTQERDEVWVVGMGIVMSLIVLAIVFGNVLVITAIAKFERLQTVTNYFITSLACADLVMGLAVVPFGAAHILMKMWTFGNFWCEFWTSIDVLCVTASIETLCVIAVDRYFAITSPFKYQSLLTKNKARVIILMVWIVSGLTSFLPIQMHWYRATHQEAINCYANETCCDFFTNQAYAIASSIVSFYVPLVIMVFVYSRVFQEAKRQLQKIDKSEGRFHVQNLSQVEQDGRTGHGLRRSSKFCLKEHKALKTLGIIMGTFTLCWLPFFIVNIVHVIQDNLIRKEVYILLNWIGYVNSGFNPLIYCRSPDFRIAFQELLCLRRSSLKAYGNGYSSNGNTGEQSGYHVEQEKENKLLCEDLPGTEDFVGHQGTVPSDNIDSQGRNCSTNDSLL
# * = called active by the depositor; i = inactive; ? = inconclusive; / = not tested or not shown; & = joins results of further samples.
structure	RanGTP-Impb inh	LANA-H2B inh	Calb FLC	HNF4A DNA FP	ALR inh	Vif TR-FRET	B2AR ag
CC(CC(=O)NCc1ccc(Cl)cc1)S(=O)(=O)c1ccc2c(c1)NC(=O)CO2 (stereo not given)	-3.2	-2.1	-8	-1.1	-2	/	6
COc1ccc(CCNc2cc(N3CCN(C(=O)c4ccc(C)cc4)CC3)ccc2[N+](=O)[O-])cc1OC	-1.5	3.6	-7	/	-4	-3%	/
C/C(N)=C(/C#N)C(=O)CSc1nncn1-c1ccccc1	5.6	0.2	-1	3.8	-2	3%	-2
OCc1c(OCc2cccc(F)c2)ccc2ccccc12	0.1	1.5	19	-1.9	-20	/	3
COc1cccc2sc(NNC(=O)C3COc4ccccc4O3)nc12 (stereo not given)	2.7	1.0	-8	-0.3	-13	9%	4
COc1cccc(/C=N/NC(=O)c2ccc(=O)[nH]n2)c1O	3.9	-57	10	1.1	5	9%	2
O=C(CCCC(=O)OCC(Cl)=C(Cl)Cl)Nc1cccc2ccccc12	5.4	2.2	-7	6.3	-43	/	4
COc1ccc(CN2CC(=O)N3[C@H]4c5ccc(OC)cc5OC[C@@H]4[C@H](c4ccccc4)[C@]3(C)C2=O)cc1	/	1.6	/	-7.5	9	/	0
S=c1[nH]nc(NCCCN2CCOCC2)s1	-0.4	1.2	-2	-0.5	10	1%	-4
COC(=O)c1ccc(C(=O)N2CCCC(CNC(=O)c3ccccc3Cl)C2)cc1 (stereo not given)	-5.6	0.3	-3	0.3	2	/	5
COc1cccc(-c2nn(C)c3sc(C(=O)N4CCN(c5ccccc5)CC4)cc23)c1	-0.6	-2.9	10	-2.2	/	?	-4
COc1ccc(-c2nsc(SCC(=O)NCc3ccc4c(c3)OCO4)n2)cc1	6.2	1.3	3	-2.4	6	/	2
O=C(NCc1ccc2c(c1)OCO2)c1cc(-c2ccccc2)c(N2CCOCC2)s1	8.7	1.8	-1	4.7	9	/	5
CCCCCCC(C)OC(=O)c1ccccc1C(=O)O (stereo not given)	-1.6	-3.2	7	0.2	-6	/	-3
CCCN1CCC(NC(=S)Nc2ccc(C(=O)OCC)cc2)CC1	2.2	-4.7	-1	-1.1	5	19%	-5
CC(C)N(Cc1cc2ccccc2[nH]c1=O)C(=O)C1CCCCC1	-2.0	1.4	13	6.8	-3	-3%	18
Cc1ccccc1C(=O)Nc1ccc2c(c1)nc(CCNC(=O)c1ccco1)n2C	-0.5	2.2	3	4.4	-2	-1%	-19
Cn1c(SCc2ccccc2Br)nc2ccccc2c1=O	1.7	1.0	37	-0.1	-5	-6%	20
COc1cc(OC)cc(C(=O)NCCCN2CCN(CCCNC(=O)c3cc(OC)cc(OC)c3)CC2)c1	-0.3	2.9	36	-3.1	-11	/	1
O=C(Cn1nnc(-c2ccccc2Cl)n1)N/N=C/c1ccc2c(c1)OCO2	-0.5	0.5	-5	-0.6	/	9%	5
CC1CCN(C(=O)CCCC(=O)O)CC1	0.6	0.4	-2	0.8	-8	-6%	-6
CCOc1ccc(-n2nnnc2SCC(=O)NNC(=O)c2ccco2)cc1	3.4	3.2	15	-1.9	6	/	26
NS(=O)(=O)c1ccc(N=Cc2ccc(Br)s2)cc1	3.9	13	-3	-4.5	-10	?	0
O=C1[C@H]2[C@H](C=CC[C@H]2C(=O)N2CCOCC2)CCN1Cc1ccccc1	-0.4	-5.2	-7	-1.2	-14	/	-3
O=C(Nc1cc(Oc2ccccc2)cc([N+](=O)[O-])c1)C12CC3CC(C1)CC(n1cnc(Cl)n1)(C3)C2	-5.3	1.6	-13	2.5	-10	4%	5

# (more compounds)
structure	RanGTP-Impb inh	LANA-H2B inh	Calb FLC	HNF4A DNA FP	ALR inh	Vif TR-FRET	B2AR ag
CCN(CCCNC(=O)CCCN1C(=O)COc2ccc(C)cc21)c1cccc(C)c1	-1.3	1.5	14	-1.1	98*	15%&-3%	-1
CCOc1ccc(CCNC(=O)C2CCN(S(=O)(=O)CC)CC2)cc1OCC	2.6	-0.4	-14	-5.3	-4	2%	1
O=C1CCCCCN1Cc1nnc(SCc2nc3ccccc3s2)n1-c1ccccn1	3.3	-7.4	1	0.4	/	1%	9
Cc1ccc(N(CC(N)=O)C2SC(=O)N(Cc3ccccc3)C2=O)cc1 (stereo not given)	2.8	-1.2	-1	-0.5	12	-4%	-9
Cc1cc2cc(CN(Cc3ccco3)C(=O)C3CCCCC3)c(=O)[nH]c2cc1C	0.5	-4.8	?	1.9	-19	3%	-2
CCCCCCC#Cc1ccc2c(c1)COc1c3ccccc3nn1-2	-3.1	-4.4	-7	-1.6	/	-1%	-2
Cc1ccc(Cn2c(C(=O)NCCCN3CCOCC3)cc3sccc32)cc1	5.7	-5.1	15	4.1	-10	-4%	1
O=C1ON=C(c2ccc([N+](=O)[O-])cc2)/C1=C/c1ccccc1O	0.3	1.7	4	28	98*	4%	-5
Cc1nc(C(=O)Nc2cc(F)cc(Cl)c2)sc1C1(C)CC(c2ccccc2)=NO1 (stereo not given)	5.2	-9.8	-14	-1.3	/	/	-10
O=c1cnnc(NCc2ccccc2)[nH]1	0.2	1.1	0	0.8	4	32%	-2
O=C(CN1C(=O)COc2ccccc2C1=O)c1ccc2c(c1)OCCO2	-1.7	-1.8	4	-3.6	-5	-17%	0
Cc1ccsc1C(=O)OCc1cc(=O)n2ccsc2n1	/	0.6	/	-1.8	3	-9%	-7
Cc1onc(-c2ccc(Cl)cc2Cl)c1-c1csc(N/N=C/c2ccccc2)n1	-2.5	2.7	-12	-4.0	-9	1%	2
CCN(Cc1ccccc1)S(=O)(=O)c1ccc(C(=O)N(CCCN(C)C)c2nc3cc4c(cc3s2)OCCO4)cc1	0.6	-5.1	-9	-1.9	0	-6%	15
Cc1c(Cl)cccc1NC(=S)Nc1ccccn1	-0.1	-4.3	-5	0.4	-34	-5%	0
O=C1OC(/C(=C\Nc2cc(Cl)ccc2O)[N+](=O)[O-])c2ccccc21 (stereo not given)	-2.7	2.0	-2	0.6	39	/	0
Cc1cccc(NC2=CC(=O)OC(C)C2)c1 (stereo not given)	1.1	-6.2	-6	-2.2	-4	-1%	5
CC(=O)Nc1ccc(C(=O)NCC2CCCCC2)cc1	4.0	1.1	-3	-1.4	-18	2%	-2
CCOC(=O)c1c(C)[nH]c(C)c1C(=O)COC(=O)c1sccc1C	/	4.7	/	2.4	1	-9%	-1
Cc1ccccc1N=Nc1ccc(O)c2ncccc12	-6.3	-4.7	-9	0.1	-55	/	11
Cc1ccc(NC(=O)CSc2ccccc2)cc1S(=O)(=O)N1CCOCC1	/	/	/	-2.4	/	0%	3
O=C(Nc1ccc(Cl)c([N+](=O)[O-])c1)c1ccc(NCCCN2CCOCC2)c([N+](=O)[O-])c1	-12	-5.7	27	30	-5	?	13
CSc1ccc(CNCC2CCCO2)cc1 (stereo not given)	-3.2	-2.9	7	-0.5	/	/	5
CCN(C(=O)COC(=O)/C=C/c1c(C)nn(Cc2ccc(C)cc2)c1C)C1CCS(=O)(=O)C1 (stereo not given)	4.4	-1.3	15	1.8	-3	-2%	-2
O=C(Oc1ccc(F)c(F)c1)c1ccc2c(=O)n3c(nc2c1)CCC3	1.3	-2.5	1	2.0	-11	-11%	2

# Some of these compounds in order of their number in LANA-H2B inh, highest first:
molecule,LANA-H2B inh
CCOc1ccc(CCNC(=O)C2CCN(S(=O)(=O)CC)CC2)cc1OCC,-0.4
Cc1c(Cl)cccc1NC(=S)Nc1ccccn1,-4.3
Cc1nc(C(=O)Nc2cc(F)cc(Cl)c2)sc1C1(C)CC(c2ccccc2)=NO1 (stereo not given),-9.8

# Fetched by structure from the list above, 4 records:
structure	RanGTP-Impb inh	LANA-H2B inh	Calb FLC	HNF4A DNA FP	ALR inh	Vif TR-FRET	B2AR ag
Cc1ccc(N(CC(N)=O)C2SC(=O)N(Cc3ccccc3)C2=O)cc1 (stereo not given)	2.8	-1.2	-1	-0.5	12	-4%	-9
O=C1ON=C(c2ccc([N+](=O)[O-])cc2)/C1=C/c1ccccc1O	0.3	1.7	4	28	98*	4%	-5
Cc1c(Cl)cccc1NC(=S)Nc1ccccn1	-0.1	-4.3	-5	0.4	-34	-5%	0
Cc1ccccc1N=Nc1ccc(O)c2ncccc12	-6.3	-4.7	-9	0.1	-55	/	11

# The results go on.
structure	RanGTP-Impb inh	LANA-H2B inh	Calb FLC	HNF4A DNA FP	ALR inh	Vif TR-FRET	B2AR ag
COc1ccc(CC(=O)NNC(=O)c2ccc(Br)s2)cc1OC	/	0.9	/	-0.9	-2	-5%	-13
CCCCCC(=O)N1CCCC(c2nc(-c3ccc(OC)cc3)no2)C1 (stereo not given)	-0.5	2.9	-2	0.5	-7	-2%	-7
COc1ccc(/C=C2\OC(=S)N(C)C2=O)cc1	2.9	4.9	5	1.9	-4	/	-1
O=[N+]([O-])c1ccc2c(c1)C(N1CCOCC1)/C(=C/COc1ccc(Cl)cc1Cl)O2 (stereo not given)	-1.3	2.0	8	3.2	4	0%&-2%	-1
Cc1cc(C(F)(F)F)n2ncc(-c3cccc(Br)c3)c2n1	3.4	2.9	-8	-2.8	-3	-4%	6
Cc1cc(OCC(=O)N[C@@H](Cc2ccccc2)c2nc3ccccc3[nH]2)ccc1Cl	-1.1	-3.7	-9	-0.1	-6	/	-2
O=C(COC(=O)c1cccc(S(=O)(=O)N2CCOCC2)c1)Nc1ncc(Cl)cc1Cl	/	-1.8	/	1.3	6	3%	-12
CCN(CC)c1ccc(/C=C/c2cccc[n+]2C)c(OC)c1	-18	-105	78*	179	99*	17%	i
CCOC(=O)N1CCC(NC(=O)C2CCCN(S(=O)(=O)c3cccc4nsnc34)C2)CC1 (stereo not given)	4.1	3.5	31	-2.4	-2	16%	0
COc1ccc(C(=O)/C=C/c2ccc(OC3CSC3)cc2)cc1	1.3	4.7	19	-1.5	0	/	9
CC(=O)NC(CCS(C)(=O)=O)C(=O)Nc1ccc(F)cc1Cl (stereo not given)	5.0	-1.0	-4	-2.5	-17	3%	13
O=CC1=C(c2ccccc2)Oc2ccccc2O1	-1.3	-1.6	3	1.0	11	/	67*
O=C(CN(Cc1ccccc1)C(=O)CNS(=O)(=O)c1ccccc1)NCC1CCCO1 (stereo not given)	3.0	0.8	20	-1.5	2	/	9
CCOc1cccc2sc(N(CCN(CC)CC)C(=O)c3cccc([N+](=O)[O-])c3)nc12	0.7	8.2	-1	1.5	-35	4%	12
COc1ccc(N2CCN(C3CCN(S(=O)(=O)c4ccc(F)cc4)CC3)CC2)cc1	0.2	1.4	2	3.5	-2	/	3
O=C(COC(=O)CNC(=O)C1CCCCC1)NCc1ccccc1	/	5.7	/	-1.3	/	/	1
Cc1nn(-c2ccccc2)c(Cl)c1/C=N/NS(=O)(=O)c1ccc(Br)cc1	4.5	-1.2	-2	-0.7	4	24%	0
CCN(Cc1ccc2c(c1)OCCO2)C(=O)CSc1nc(C)nc2sc(C)c(C)c12	/	6.7	/	-3.1	11	-14%	4
CC(O)[C@H]1CN=C(N)N1CCc1cc(C(F)(F)F)cc(C(F)(F)F)c1 (stereo not given in full)	-4.8	0.1	3	5.3	4	/	-1
Cc1cc(=O)[nH]c(N=N/C(=N/Nc2ccccc2C)c2ccccc2)n1	1.4	-2.1	-15	-3.1	-9	7%	-8
CCNc1nnc(SCC(=O)NC2CCCCCC2)s1	/	/	/	-0.6	/	-6%	3
O=C(C[C@H]1C/C=C\CC[C@H](Cc2ccc(F)cc2)C(=O)O[C@@H](c2ccccc2)CNC1=O)N[C@@H](CO)Cc1ccccc1	/	-7.2	/	-1.6	0	/	-2
